# High-throughput results (PubChem BioAssay)
# eIF4H inh: inhibitors of RNA binding by human eIF4H; eIF4H fluorescence polarization binding assay; inhibition, % at 35 µM; 290,000 tested, 0.94% active;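 active means 50% or more with normal probe brightness, or confirmed in later tests; inconclusive means above 50% with abnormal brightness, or retests that disagree; inactive means below 50% or failed in later tests; about a fifth of its hits are not listed in these tables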;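 further: calls also rest on retests at 20 µM and on dose response follow-up; 0% = protein and probe with vehicle and 100% = probe without protein; strong numbers were not always called active; many hits fall short of the cut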
# Yeast UUG start: modulators of start codon recognition fidelity in yeast; S. cerevisiae UUG-firefly luciferase reporter, luminescence/redox ratio; activity score, % at 18.7 µM; 350,000 tested, 0.13% active; AID 602363;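 active means replicate mean at a twofold rise or more, about +100% in these data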;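 further: firefly luciferase made from a UUG start codon reports start codon fidelity; reporter light over untreated wells divided by growth signal over untreated wells; some hits fall short of that in this replicate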
# CSC inhib: blocks cancer stem cells | 300,000 tested, 1.1% active | AID 2717 | inhibition, % at 7.5 µM | cancer stem cell-like cells viability, luminescence;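 active means mean at 75% or more and at least half the replicates too; inconclusive means mean and replicates disagree; tested in HMLE shEcad cells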;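 further: 0% = median of negative and 100% = median of positive control wells; the first replicate is given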
# PABP FP inh: PABP-poly(A) binding inhibition; P11940; PABP-poly(A) RNA binding, fluorescence polarization; inhibition, % at 35 µM; 290,000 tested, 1% active; AID 2014;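 active means 50% or more with normal probe brightness, or confirmed in later tests; inconclusive means above 50% with abnormal brightness, or retests that disagree; inactive means below 50% or failed in later tests; about a fifth of its hits are not listed in these tables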;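 further: calls also rest on retests at 20 µM and on dose response follow-up; controls were probe without protein and protein plus probe with vehicle; some compounds called inactive have numbers as strong as hits; many hits fall short of the cut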
# Target sequence (P11940 whole entry, looked up): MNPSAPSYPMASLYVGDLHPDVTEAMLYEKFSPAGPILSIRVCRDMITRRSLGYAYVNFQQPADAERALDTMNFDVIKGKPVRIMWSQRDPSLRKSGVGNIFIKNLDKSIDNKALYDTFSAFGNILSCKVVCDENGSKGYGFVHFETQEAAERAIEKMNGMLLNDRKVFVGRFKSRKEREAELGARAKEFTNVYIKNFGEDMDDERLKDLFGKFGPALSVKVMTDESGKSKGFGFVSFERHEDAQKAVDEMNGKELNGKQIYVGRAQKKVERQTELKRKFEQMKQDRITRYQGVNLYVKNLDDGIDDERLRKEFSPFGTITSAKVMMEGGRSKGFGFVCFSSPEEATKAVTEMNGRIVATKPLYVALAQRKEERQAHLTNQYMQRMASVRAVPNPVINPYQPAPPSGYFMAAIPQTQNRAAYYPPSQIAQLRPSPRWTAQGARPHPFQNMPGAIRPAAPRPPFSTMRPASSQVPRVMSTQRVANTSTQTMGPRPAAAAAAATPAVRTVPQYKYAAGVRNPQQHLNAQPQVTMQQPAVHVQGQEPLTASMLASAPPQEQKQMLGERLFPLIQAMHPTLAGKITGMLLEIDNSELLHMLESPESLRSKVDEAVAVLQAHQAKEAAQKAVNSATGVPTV
# Env fusion inh: blocks HIV Env-driven cell-cell fusion. HeLa-JRFL Env/CEM21 cell fusion, luciferase. inhibition, % at 12.3 µM. 360,000 tested, 1.1% active;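 active means mean replicate inhibition score of at least 50 and every replicate individually at or above 50; inconclusive means only one of the two criteria met; inactive means mean below 50 and not all replicates reaching 50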;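 further: 0% = plate neutral controls and 100% = maraviroc near 300 nM; one replicate is shown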
# MT1-MMP act inh: blocks activation of human MT1-MMP | HT1080 RFP-PRO-GFP cells, GFP/RFP ratio fluorescence, overnight; percent of plate control window, DMSO zero | 360,000 tested, 0.061% active | GFP/RFP ratio change, % at 20 µM;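 active means GFP/RFP ratio change of at least 30% with cell ATP level not reduced by more than half and red fluorescence within 50% of control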; further: strong numbers were not always called active
#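 Material – HT1080 RFP-PRO-GFP cells · Control set – DMSO wells and RFP-L50D-GFP cells · Incubation – overnight cell settling, then overnight compound exposure, 37 °C, 5% CO2 · Compound dosing – single-point 20 µM compound, 1% DMSO · Read-out – GFP/RFP fluorescence ratio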
# Rce1 inh: inhibitors of yeast Ras-converting enzyme; 290,000 tested, 0.27% active; yeast membranes, quenched prenylated peptide cleavage fluorescence; Q03530; AID 2563; calls only;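 active means fall in fluorescence gain of 50% or more versus controls, with final raw signal at or below 3038400; inconclusive means same 50% fall but final raw signal above 3038400; inactive means fall in fluorescence gain under 50%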;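 further: plate controls were neutral control wells for no effect and wells lacking membranes for full effect; tested at 10 µM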
# Target sequence (Q03530 whole entry, looked up): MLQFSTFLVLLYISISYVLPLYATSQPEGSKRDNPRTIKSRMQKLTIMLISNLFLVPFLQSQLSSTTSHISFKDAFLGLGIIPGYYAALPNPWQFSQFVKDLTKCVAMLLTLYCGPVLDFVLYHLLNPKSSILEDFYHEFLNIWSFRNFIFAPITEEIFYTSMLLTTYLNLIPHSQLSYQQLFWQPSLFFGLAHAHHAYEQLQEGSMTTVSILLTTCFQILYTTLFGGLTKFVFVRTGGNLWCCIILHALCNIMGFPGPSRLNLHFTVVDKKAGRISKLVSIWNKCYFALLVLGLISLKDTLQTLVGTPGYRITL
# eIF4H inh retest: second read-out of eIF4H inh, no call of its own (marks repeat the call); inhibition, %; compound at 20 µM; confirmation average;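 mean of two retest wells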
# PABP FP inh retest: further read-out of PABP FP inh, marked with its call; inhibition, %; compound at 20 µM; confirmation repeats;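 mean of two retest wells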
# MT1-MMP act inh RFP: further read-out of MT1-MMP act inh, marked with its call; RFP signal change, %; measured here: RFP expression control read;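 0 = vehicle wells; hits needed this value within 50% of zero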
# Active calls of the source: *; i = inactive; u = inconclusive; x = not tested or not shown; & = joins results of further samples.
SMILES,eIF4H inh,Yeast UUG start,CSC inhib,PABP FP inh,Env fusion inh,MT1-MMP act inh,MT1-MMP act inh RFP,Rce1 inh,others
COc1ccc(CN2CCNC(=O)C2CC(=O)N(C)C2CCOCC2)c(F)c1 (stereo not drawn),4,-7,-5,5,-7,-4,-2,i,
Cc1ccc(NC(=O)Cc2ccc(-c3ccccc3)cc2)nc1,-10,-5,5,-6,-12,1,-3,i,
COc1ccc2oc(C(F)(F)C(F)(F)F)cc(=O)c2c1,-10,-2,x,-9,-37,6,14,i,
COc1ccc(OC)c(NC(=O)COC(=O)CCCN2C(=O)c3ccccc3C2=O)c1,-5,9,10,1,2,0,4,i,
CCOC(=O)/C=C/C(=O)Nc1ccc(Oc2ccccc2)cc1,1,x,31,6,10,-4,-6,i,
Cc1cc(C)c(S(=O)(=O)NCC(=O)NCc2ccccn2)c(C)c1,-3,x,-16,9,0,2,5,i,
N#Cc1ccc(-c2nc3ccc(Br)cn3c2Cc2ccsc2)cc1,x,-14,x,x,-33,-4,7,x,
CC(C)C(=O)Nc1cccc(C(=O)Nc2nnc(C(C)(C)C)s2)c1,0,-15,0,8,x,8,1,i,
COc1ccc(NC(=S)N2CCC(c3nc4ccccc4o3)CC2)c(OC)c1,4,x,4,0,-10,3,3,i,
Cc1nc2ncnn2c(C)c1Cc1cccc(C(F)(F)F)c1,3,-16,-17,4,14,5,0,i,
O=C(CSC1=NS(=O)(=O)c2cc(F)ccc2N1)NCc1ccccc1Cl,x,-12,-8,x,13,-3,0,i,
O=c1c2ccccc2oc2cc(OCc3cccc(F)c3)cc(O)c12,0,5,16,11,-2,0,1,i,
O=C(N/N=C/c1ccccc1OC(=O)N1CCOCC1)c1cccs1,3,x,-12,2,1,3,3,i,
CC1(C(=O)NS(=O)(=O)c2ccccc2Cl)CCN1C(=O)C1(c2ccc(Cl)cc2)CCC1 (stereo not drawn),x,12,x,x,-17,-7,-4,x,
NC(=O)C1CCCN(C(=O)c2ccc(NC(=O)c3cccs3)cc2)C1 (stereo not drawn),x,3,x,x,4,-5,0,x,
Cc1c(OCC(=O)NCCCN2CCOCC2)ccc2c1oc(=O)c1ccccc12,-6,3,5,8,1,6,3,i,
O=[N+]([O-])c1ccc(N2CCCCC2)c(Cl)c1N1CCCCC1,2,9,10,-4,25,13,0,i,
CCCNC(=O)COC(=O)c1ccccc1C(=O)N(C)C1CCCCC1,-1,x,-6,7,3,2,4,i,
CCC1(c2ccccc2)SC(N)=NC1=O (stereo not drawn),x,-8,x,x,22,2,1,x,
CCc1ccc(NC(=O)COC(=O)CCCC2=NS(=O)(=O)c3ccccc3N2)cc1,0,8,-6,11,12,1,2,i,

# In the list so far, three have a Cl atom:
SMILES,eIF4H inh,Yeast UUG start,CSC inhib,PABP FP inh,Env fusion inh,MT1-MMP act inh,MT1-MMP act inh RFP,Rce1 inh,others
O=C(CSC1=NS(=O)(=O)c2cc(F)ccc2N1)NCc1ccccc1Cl,x,-12,-8,x,13,-3,0,i,
CC1(C(=O)NS(=O)(=O)c2ccccc2Cl)CCN1C(=O)C1(c2ccc(Cl)cc2)CCC1 (stereo not drawn),x,12,x,x,-17,-7,-4,x,
O=[N+]([O-])c1ccc(N2CCCCC2)c(Cl)c1N1CCCCC1,2,9,10,-4,25,13,0,i,

# The results go on.
SMILES,eIF4H inh,Yeast UUG start,CSC inhib,PABP FP inh,Env fusion inh,MT1-MMP act inh,MT1-MMP act inh RFP,Rce1 inh,others
COc1ccc(N=Cc2c[nH][nH]c2=O)cc1,4,-17,28,2,32,7,4,i,
COc1ccc2[nH]c(C(=O)NCc3ccccc3)cc2c1,-3,x,4,10,5,0,-2,i,
COCCn1nnnc1C(c1ccc(OC)cc1OC)N1CCN(c2ccccc2)CC1 (stereo not drawn),-7,-2,-8,3,x,0,-2,i,
COc1ccc(C2=NNC(c3cc(Cl)cc4c3OCOC4)C2)c(O)c1 (stereo not drawn),52*,x,-7,13,x,x,x,i,eIF4H inh retest=91*;PABP FP inh retest=32
C=CCOc1ccccc1NC(=O)CN1C(=O)CNC1=O,-1,-11,-7,0,5,2,0,i,
COc1cccc(C(=O)Nc2nc(-c3ccc4c(c3)OCO4)cs2)c1,-11,-12,16,3,-25,-3,-6,i,
COCCn1c(SCc2nc(N)nc(Nc3ccccc3C)n2)nc2ccccc2c1=O,-13,x,12,-5,x,2,0,i,
Cc1ccnc(N/N=C/c2ccco2)n1,2,-1,8,1,-21,1,6,i,
C[C@@H]1CN([C@H](C)CO)C(=O)c2cc(NC(=O)Nc3ccc(C(F)(F)F)cc3)ccc2O[C@H]1CN(C)S(=O)(=O)c1ccc(Cl)cc1,x,-18&-10,78*,x,u,1,-10,x,
CCCc1nnc(-c2cc(OC)c(OC)c(OC)c2)o1,4,x,-15,5,3,3,-2,i,
COc1ccc(NC(=O)COC(=O)c2c(-c3ccccc3)noc2C)cc1,-6,-12,-12,1,x,1,-3,i,
Cc1ccc(N2C(=O)C3C4C=CC(CNC(=S)Nc5cccc(Cl)c5)(O4)C3C2=O)cc1 (stereo not drawn),4,-15,8,-15,19,9,-10,i,
C=C(C)Cn1c(CCNC(=O)C(C)C)nc2ccccc21,-6,12,x,-6,-58,-1,2,i,
COc1ccc(N(CC(=O)NC2CCCC2)C(=O)Cn2nnc(-c3ccc(OC)c(OC)c3)n2)cc1,-1,x,-7,0,16,1,1,i,
COc1cccc(C(=O)Nc2cc(C(=O)NCCc3ccccc3)ccc2Cl)c1,-6,1,-10,-4,x,2,-1,i,
COc1cc(=O)[nH]c(=O)n1CC(=O)c1ccccc1,-1,-11,11,-10,x,2,1,i,
CCCOc1ccc(C2C3=C(CCCC3=O)N(CC(=O)O)C3=C2C(=O)CCC3)cc1OCC,2,-14,-19,3,6,0,4,i,
C=CCOc1ccccc1CN(C(=O)CCl)c1ccc2c(c1)OCO2,-6,-9,-8,4,-4,-4,-1,i,
Cc1ccc(NC2CCCN(C(=O)c3cnsn3)C2)cc1C (stereo not drawn),4,-13,-3,-1,5,-1,1,i,
CC1CN(Cc2cnc(Cl)s2)CC(C)O1 (stereo not drawn),-5,x,x,-15,2,-5,2,x,
O=C(Nc1ccc[n+](CC(=O)c2cccc3ccccc23)c1)c1ccccc1,1,x,16,8,2,-2,-5,i,
COc1cnc(-c2ccccn2)nc1Oc1ccc(Cl)cc1,8,2,17,-4,-2,-2,3,i,
CCCn1nnc(NC(=O)Cc2ccccc2)n1,-3,-11,1,-1,-58,6,3,i,
Cc1ccc(S(=O)(=O)CCC(=O)Nc2ccc(F)cc2)cc1,-9,x,-11,40,-4,3,6,i,
Cc1ccn2cc(-c3cccc(S(=O)(=O)N4CCCCC4)c3)nc2c1,-9,-10,-14,12,2,0,-7,i,
CCOc1ccc(NC(=O)c2nnn(CC(=O)Nc3ccccc3OC)c2N)cc1,-6,-14,16,2,x,2,-1,i,
COc1ccc(-n2nnnc2SCC(=O)Nc2ccccc2N2CCOCC2)cc1,4,x,2,2,2,1,3,i,
O=C1CCCC(O)=C1C=NCCc1ccccc1,-4,-19,x,-8,x,2,3,i,
Cc1ccc(C(=O)NC(C)c2ccccc2)cc1S(=O)(=O)N1CCOCC1 (stereo not drawn),2,-5,2,-3,19,-2,1,i,
COc1ccc(S(=O)(=O)N2CCN(C(=O)[C@@H]3CCCN3C(=O)c3cccs3)CC2)cc1,x,-7,x,x,19,6,-2,x,
O[Si](CCCN1CCCCC1)(c1ccc(F)cc1)C1CCCCC1 (stereo not drawn),x,0,0,x,13,1,-2,x,
CCN1/C(=C2/SC(=S)N(C)C2=O)C=Cc2cc(C)ccc21,x,-10,-3,x,-6,31*,31*,i,
Cc1ccc(CN2CC(C(=O)Nc3ccccc3N3CCCC3)CC2=O)cc1 (stereo not drawn),x,-1,-10,x,u,7,3,i,
COc1cccc(OC)c1C(=O)Nc1sc2c(c1C(N)=O)CCN(Cc1ccccc1)C2,24,-1,-12,14,x,-7,0,i,
CCOC(=O)c1c(-c2ccccc2Cl)csc1NC(=O)CSc1nc(C)cc(=O)[nH]1,3,x,18,-8,-4,-1,0,i,
CCn1c(O)c(C(C#N)=C2N=c3ccccc3=N2)c2ccccc21,-3,-11,-5,3,-15,0,0,x,
COc1ccc(S(=O)(=O)N2c3ccccc3OCC2CC(=O)O)cc1 (stereo not drawn),-4,x,9,1,4,0,-2,i,
Cc1ccccc1OC1C(=O)N(Cc2ccc3c(c2)OCO3)C1c1sccc1C (stereo not drawn),2,x,49,-8,25,-20,-19,i,
Cc1cc(C)nc(SCC(=O)N/N=C/c2cccn2-c2cccc(C(F)(F)F)c2)n1,-13,-7,-12,-12,44,-1,-9,i,
O=C(NCc1ccco1)c1ccc(-c2cccc(Cl)c2)o1,-1,x,-8,2,-19,-1,5,i,
O=C(Cn1ncc2c([nH]c3ccccc32)c1=O)N1CCOCC1,5,-17,-2,6,10,2,4,i,
Cc1ccc(S(=O)(=O)Nc2ccc(Br)cc2/C=N/n2cnnc2)cc1,-2,-9,16,-4,x,-7,-5,i,
O=C(CN1C(=O)CCS(=O)(=O)c2ccccc21)NCc1ccc(F)cc1,-5,0,8,13,x,1,3,i,
CCCCCN(C(=O)COC(=O)Cc1c(C)nc2ccccc2c1C)c1c(N)n(CCCC)c(=O)[nH]c1=O,x,x,-20,x,-14,-2,-1,i,
CC1=NNC(=O)C1CC(=O)N/N=C(\C)c1cccs1 (stereo not drawn),-11,x,1,6,2,5,6,i,
CC(C)(C)c1ccc(C(=O)Oc2ccccc2CCC(=O)O)cc1,-4,9,-18,10,1,3,1,i,
Cc1ccc(CC(=O)Nc2cccnc2)cc1,-2,x,4,-2,32,-3,-1,i,
COC(=O)c1ccc(N2CCCCC2)c(NC(=O)c2ccco2)c1,9,-3,-20,2,20,-3,-7,i,
O=C1CC[C@@H]2CC(N3CCN(c4ccccc4)CC3)C[C@@H]3CCN1[C@H]23 (stereo partly drawn),x,-4,x,x,-7,2,5,x,
COc1ccc(C(=O)NC(C(=O)N2CCN(C/C=C/c3ccccc3)CC2)C(C)C)cc1 (stereo not drawn),x,-8,x,x,-1,3,-6,x,
COc1ccc(C(=O)C[n+]2cccc(C)c2C)cc1[N+](=O)[O-],-6,x,-5,0,8,-3,1,i,
O=C(O)c1sccc1S(=O)(=O)N1CCN(c2ccc(C(F)(F)F)cn2)CC1,4,42,12,-5,-1,-7,-4,i,
Cc1cccc(NC(=O)c2cccc(C(=O)Nc3cccc(C)c3)c2)c1,-6,-7,-3,-1,4,0,0,i,
CN(CCNC(=O)C1CCN(S(=O)(=O)c2cnc[nH]2)CC1)Cc1ccccc1,-1,-20,-9,-4,-87,2,7,i,
CCC(=O)N1CCc2cc(Br)c(S(=O)(=O)CCC(=O)NCCc3ccccc3)cc21,x,-4,x,x,-48,2,1,x,
CCCC(=O)NCc1ccncc1,-5,x,0,5,-13,x,x,i,
Cc1cnc(C(=O)Nc2ccc(-n3cnnn3)cc2)cn1,-6,-26,5,16,-17,-2,2,i,
Cc1ccc(C)c(NS(=O)(=O)c2cc(C(=O)Nc3ccccc3-c3ccccc3)ccc2Cl)c1,-4,-13,34,9,x,10,-5,i,
C=CCn1nnnc1SCC(=O)Nc1ccc(C(=O)OC)cc1,60,-13,4,2,0,1,1,i,eIF4H inh retest=-1;PABP FP inh retest=13

# A portion of the library. The share of hits here may be higher or lower than overall.
